FGF22 binding – shifts melting point of recombinant human FGF22; Q9HCT0; recombinant FGF22 thermal shift, SYPRO orange fluorescence; percent of sucrose octasulfate shift, DMSO zero; calls only at 9.99 µM; actives 1.5% (n = 340,000); AID 651658;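 active = melting point raised past a set limit in the mean and every replicate; three in four hits are not shown here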
Target sequence (Q9HCT0 whole entry, looked up): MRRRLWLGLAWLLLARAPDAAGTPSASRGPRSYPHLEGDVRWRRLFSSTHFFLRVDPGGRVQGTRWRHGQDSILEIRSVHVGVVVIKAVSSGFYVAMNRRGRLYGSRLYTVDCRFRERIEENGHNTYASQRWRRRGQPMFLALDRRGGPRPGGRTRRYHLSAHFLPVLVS
Calls only; i = inactive; + = active, no number. These rows are one share of the data (hit frequency here may not be typical).

SMILES	FGF22 binding
O=C(C1CCC1)N1CCCCN2[C@H](C1)[C@@H](c1ccc(C#CC3CCCC3)cc1)[C@@H]2CO	i
C[C@H]1CN([C@@H](C)CO)C(=O)c2cc(NC(=O)Nc3ccc(C(F)(F)F)cc3)ccc2O[C@H]1CN(C)CC1CCCCC1	i
O=C(NCCCCC(NC(=O)c1ccccc1)C(=O)O)OCc1ccccc1 (stereo not drawn)	i
COc1ccc(C#Cc2ccc3c(c2)[C@]2(C(=O)N3)[C@H](C(N)=O)[C@H]3C(=O)O[C@H](c4ccccc4)[C@H](c4ccccc4)N3[C@@H]2c2ccc(O)cc2)cc1	i
Cc1ccc(S(=O)(=O)Nc2ccc3c(c2)CC(=O)N([C@@H](C)CO)C[C@@H](C)[C@H](CN(C)CC2CCCCC2)O3)cc1	i
Cc1nc(S(=O)(=O)N[C@@H]2CCN(Cc3ccc(OCCO)cc3)C2)cn1C	i
Cn1cnc(S(=O)(=O)N2CCCCN3[C@H](CO)[C@H](c4ccc(C#CC5CC5)cc4)[C@@H]3C2)c1	i
CC(C)CN1C(=O)[C@@]2(c3ccc([N+](=O)[O-])cc3)CC(=O)N(CC3C4CC5CC(C4)CC3C5)[C@@H]2c2ccc(CO)cc21 (stereo partly drawn)	i
C=CC1c2cc(OC)c(OC)cc2CC(C)N1Cc1ccc(OC)cc1 (stereo not drawn)	i
Cc1noc(C)c1NC(=O)N(C)C[C@@H]1Oc2c(NC(=O)Nc3ccc(C(F)(F)F)cc3)cccc2C(=O)N([C@H](C)CO)C[C@H]1C	i
CCO[C@@H]1OC(C(=O)N2CCN(Cc3ccccc3)CC2)=C[C@H](C2CCCCC2)[C@H]1CCCO	i
COc1ccc([Si](C)(C)[C@@H]2[C@@H](CCn3cc([C@H](O)c4ccccc4)nn3)O[C@]3(C(=O)N(Cc4ccc(N5CCC5=O)cc4)c4ccccc43)[C@H]2C)cc1	i
Nc1[nH]c(C(=O)c2ccc(Br)cc2)c(-c2ccc(Cl)c(Cl)c2)c1C(=O)NCCc1c[nH]c2ccccc12	i
CC(NC(=O)c1c(N)[nH]c(C(=O)c2ccc(Cl)cc2)c1-c1ccc(Br)cc1)c1cccc2ccccc12 (stereo not drawn)	i
C[C@H](CO)N1C[C@H](C)[C@@H](CN(C)S(=O)(=O)CC(F)(F)F)OCc2ccccc2-c2ccccc2C1=O	i
Nc1[nH]c(C(=O)c2ccccc2)c(-c2ccccn2)c1C(=O)c1c[nH]c2ccc(F)cc12	i
Cc1ccc(F)cc1S(=O)(=O)N[C@@H]1CCN(Cc2ccc(OC(C)C)cc2)C1	i
CO[C@@H]1CN(C)C(=O)c2cc(NS(=O)(=O)c3ccccc3)ccc2OC[C@@H](C)N(Cc2cccnc2)C[C@@H]1C	i
O=C(c1ccc(F)cc1)N1CCCCN2[C@@H](CO)[C@@H](c3ccc(-c4ccc(F)cc4)cc3)[C@@H]2C1	i
CN(C)CCCCCCNC(=O)[C@H]1C[C@H]2C(=O)N3CCC[C@H]3C(=O)N2[C@H]1c1cccc(OCCO)c1	i
Nc1ccccc1-c1cn(CC(=O)Nc2ccon2)nn1	i
CN(C)CC(=O)N[C@H]1C[C@@H]2O[C@H](CO)CC[C@@H]2O[C@@H]1CCc1ccc(C#Cc2ccccc2)cc1	i
CCOC(=O)c1ccc(NC(=O)O[C@H]2[C@H](OC(=O)Nc3ccc4c(c3)OCO4)[C@@H](OC(=O)Nc3ccc4c(c3)OCO4)[C@@H](OC)O[C@@H]2CO)cc1	i
C[C@H]1C=C(C(=O)Nc2ccccc2)O[C@@H](OCCCCO)C1	i
Cc1nc(S(=O)(=O)NC2CCN(Cc3ccc(OCCO)cc3)CC2)cn1C	i

Taken from above for reference:
SMILES	FGF22 binding
CN(C)CCCCCCNC(=O)[C@H]1C[C@H]2C(=O)N3CCC[C@H]3C(=O)N2[C@H]1c1cccc(OCCO)c1	i
Nc1ccccc1-c1cn(CC(=O)Nc2ccon2)nn1	i
CN(C)CC(=O)N[C@H]1C[C@@H]2O[C@H](CO)CC[C@@H]2O[C@@H]1CCc1ccc(C#Cc2ccccc2)cc1	i
CCOC(=O)c1ccc(NC(=O)O[C@H]2[C@H](OC(=O)Nc3ccc4c(c3)OCO4)[C@@H](OC(=O)Nc3ccc4c(c3)OCO4)[C@@H](OC)O[C@@H]2CO)cc1	i
C[C@H]1C=C(C(=O)Nc2ccccc2)O[C@@H](OCCCCO)C1	i
Cc1nc(S(=O)(=O)NC2CCN(Cc3ccc(OCCO)cc3)CC2)cn1C	i

Back to the main list, starting 6 compounds before the break.
SMILES	FGF22 binding
CN(C)CCCCCCNC(=O)[C@H]1C[C@H]2C(=O)N3CCC[C@H]3C(=O)N2[C@H]1c1cccc(OCCO)c1	i
Nc1ccccc1-c1cn(CC(=O)Nc2ccon2)nn1	i
CN(C)CC(=O)N[C@H]1C[C@@H]2O[C@H](CO)CC[C@@H]2O[C@@H]1CCc1ccc(C#Cc2ccccc2)cc1	i
CCOC(=O)c1ccc(NC(=O)O[C@H]2[C@H](OC(=O)Nc3ccc4c(c3)OCO4)[C@@H](OC(=O)Nc3ccc4c(c3)OCO4)[C@@H](OC)O[C@@H]2CO)cc1	i
C[C@H]1C=C(C(=O)Nc2ccccc2)O[C@@H](OCCCCO)C1	i
Cc1nc(S(=O)(=O)NC2CCN(Cc3ccc(OCCO)cc3)CC2)cn1C	i
NCCCCCNC(=O)[C@@H]1C[C@@H]2C(=O)N[C@@H](Cc3ccccc3)C(=O)N2[C@@H]1c1ccc(O)cc1	i
COCCOC(=O)N1C(=O)[C@@]2(c3ccccc31)[C@H](C(=O)Nc1nc3ccccc3s1)[C@H]1C(=O)O[C@H](c3ccccc3)[C@H](c3ccccc3)N1[C@@H]2c1ccc(OCCO)cc1	i
COC(=O)c1cn(C[C@H](Cc2ccccc2)NC(=O)c2ccccc2)nn1	i
C/C=C/c1cnc2c(c1)C(=O)N([C@@H](C)CO)C[C@H](C)[C@@H](CN(C)S(=O)(=O)c1cccs1)O2	i
C[C@@H]1CN([C@@H](C)CO)C(=O)c2cc(C3=CCCC3)cnc2O[C@H]1CN(C)C(=O)c1ccccc1	i
Cc1ccccc1-c1ccc([C@H]2[C@H](CO)N3CCCCN(C(=O)Nc4cccc(F)c4)C[C@@H]23)cc1	i
O=S(=O)(c1ccc(F)cc1)N1CCCCN2[C@@H](CO)[C@H](c3ccc(-c4ccccc4F)cc3)[C@@H]2C1	i
Cc1ccccc1S(=O)(=O)NCC[C@@H]1CC[C@H](NC(=O)Nc2cccc(Cl)c2)[C@@H](CO)O1	i
C=CCN1C(=O)[C@@]2(Cc3ccccc3)N=C(c3ccc(OCCCO)cc3)O[C@H]2c2ccccc21	i
C[C@@H]1CN([C@@H](C)CO)C(=O)Cc2cc(NC(=O)Nc3ccccc3)ccc2O[C@@H]1CN(C)CC1CC1	i
O=C1O[C@@H](c2ccccc2)[C@@H](c2ccccc2)N2[C@@H](c3ccccc3OCCO)[C@]3(C(=O)Nc4ccc(C#CC5(O)CCCCCC5)cc43)[C@@H](C(=O)N3CCCCCCC3)[C@H]12	i
COc1ccccc1CN1C(=O)c2ccccc2[C@@]2(Cc3ccccc3N(CCN3CCOCC3)C2=O)[C@@H]1c1ccc(CO)cc1	i
COc1ccc(CCN2C(=O)[C@@]3(Cc4ccccc42)c2ccccc2C(=O)N(C2CCCCC2)[C@H]3c2ccc(CO)cc2)cc1	i
O=C(O)C(=Cc1ccc([N+](=O)[O-])cc1)c1ccccc1	i
O[C@@H](Cc1ccccc1)[C@@H](/C=C/C1CC1)N(CC#Cc1ccccc1)Cc1ccccc1Br	i
COc1ccc(NC(=O)O[C@H](c2ccc(OC)c(O)c2)[C@@H](CCO)OC)cc1	i
O=C(C1=C[C@@H](c2csc3ccccc23)C[C@@H](OCCCCO)O1)N1CCCCCCC1	i
O=C(C1CCC1)N1CCCCN2[C@H](CO)[C@H](c3ccc(-c4cccc(F)c4)cc3)[C@H]2C1	i
Cc1ccc(S(=O)(=O)N[C@@H]2CCCN(Cc3cccc(OCCO)c3)C2)cc1	i
COc1ccc(NC(=O)C(OC(=O)c2ccccc2)c2cccs2)cc1 (stereo not drawn)	i
C[C@@H]1CN([C@H](C)CO)C(=O)c2ccccc2-c2ccccc2CO[C@@H]1CN(C)S(=O)(=O)CC(F)(F)F	i
NC(=O)c1c(N)[nH]c(C(=O)c2ccccc2)c1-c1ccc(Br)cc1	i
[N-]=[N+]=NCc1ccccc1C[C@]1(C(=O)N2CCCCC2)N=C(c2ccc(OCCCO)cc2)O[C@H]1c1ccccc1	i
COC(=O)c1c(CC[C@@H](CO)NC(=O)N[C@H](Cn2cc(-c3cncn3C)nn2)C(C)C)oc(C(C)=O)c1C(=O)OC	+
O=C1C2C=C(Br)[C@H](C[C@@H]2OCCCCCCO)[C@@]12CO2	i

Further entries.
SMILES	FGF22 binding
CN(C)c1ccc(N(C)C)c(C(O)(c2ccccc2)c2ccccc2)c1	i
C[n+]1cc2c3c(ccc2c2ccc4cc5c(cc4c21)OCO5)OCO3	i
CO[C@H]1O[C@H](CO)[C@@H](OC(=O)Nc2cccc(F)c2)[C@@H]2OC(=O)[C@@H](Cc3ccccc3)C/C=C/C[C@H](Cc3ccccc3)C(=O)O[C@@H]12	i
C[C@H](CO)N1C[C@H](C)[C@H](CN(C)Cc2cccnc2)Oc2cc(Br)ccc2S1(=O)=O	i
COc1ccc(NC(=O)O[C@H]2[C@H](OC(=O)Nc3ccc4c(c3)OCO4)[C@H](OC(=O)Nc3ccc4c(c3)OCO4)[C@@H](OC)O[C@@H]2CO)cc1	i
Cc1cccc(S(=O)(=O)N2CC[C@@H]3[C@H](CO)N(C)c4ccc(C#Cc5ccc(F)cc5)cc4[C@@H]32)c1	i
CC(C)(C)C(=O)c1c(N)[nH]c(C(=O)c2ccccc2)c1-c1ccccc1	i
C[C@@H]1CN([C@H](C)CO)C(=O)c2cccc(NC(=O)Nc3ccc(C(F)(F)F)cc3)c2O[C@H]1CN(C)C(=O)Nc1ccc(F)cc1	i
COc1ccc(CN(C)C[C@H]2Oc3ccc(NC(=O)Nc4ccc(F)cc4)cc3CC(=O)N([C@@H](C)CO)C[C@H]2C)cc1	i
CC(C)CC#Cc1ccc2c(c1)O[C@@H](CN(C)S(=O)(=O)c1cccc(F)c1)[C@@H](C)CN([C@@H](C)CO)S2(=O)=O	i
C=CC1CN(S(=O)(=O)c2ccc(Br)cc2)C(=O)N1c1ccc(Br)cc1 (stereo not drawn)	i
O=C1C[C@@](C(=O)NCCN2CCOCC2)(c2ccc([N+](=O)[O-])cc2)[C@@H](c2ccc(CO)cc2I)N1CC12CC3CC(CC(C3)C1)C2	i
O=C(C[C@H]1CC[C@@H]2[C@H](COC[C@@H](O)CN2Cc2ccccc2F)O1)N[C@H]1CCN(Cc2ccccc2)C1	i
COc1ccc([C@H]2C[C@H]3C(Br)=CC2C(=O)[C@]32CO2)cc1OC	i
C#CCNC(=O)C1=C[C@@H](C(C)(C)C)[C@H](CCCO)[C@@H](OCC)O1	i
C=CCNC(=O)[C@@H]1[C@H]2C(=O)O[C@H](c3ccccc3)[C@H](c3ccccc3)N2[C@H](c2ccccc2OCCO)[C@@]12C(=O)N(C(=O)OCCOC)c1ccc(C#CCC(C(=O)OC)C(=O)OC)cc12	i
CCC(=O)Nc1ccc2c(c1)C(=O)N(C)[C@H]1CC[C@H](CC(=O)NCCc3ccccc3)O[C@@H]1CO2	i
O=C(C[C@H]1CC[C@@H](NC(=O)Nc2cccc(F)c2)[C@H](CO)O1)NCC1CCCCC1	i
O=C(C1CCC1)N1CCCCN2[C@H](C1)[C@H](c1ccc(C#CC3CCCC3)cc1)[C@@H]2CO	i
COc1cccc(-c2ccc([C@@H]3[C@@H](CO)N4CCCCN(CC5CCOCC5)C[C@@H]34)cc2)c1	i
C[C@@H]1CN([C@@H](C)CO)C(=O)Cc2cc(NC(=O)c3ccncc3)ccc2O[C@H]1CN(C)CC1CCCCC1	i
C[C@H]1CN([C@@H](C)CO)C(=O)c2cccc(NC(=O)c3ccncc3)c2O[C@@H]1CN(C)Cc1ccc(Oc2ccccc2)cc1	i
O=C(C[C@H]1C=C[C@H](NC(=O)NC2CCCCC2)[C@@H](CO)O1)NCc1ccc(Cl)cc1	i
CN(N=Cc1ccccc1O)C(=O)c1ccccc1N	i
O=C(NCc1ccc(F)cc1)[C@H]1C[C@H]2C(=O)N3CCC[C@H]3C(=O)N2[C@H]1c1cccc(OCCO)c1	i

Molecules listed so far that have a thiophene ring, fused or not, in the order listed:
SMILES	FGF22 binding
C/C=C/c1cnc2c(c1)C(=O)N([C@@H](C)CO)C[C@H](C)[C@@H](CN(C)S(=O)(=O)c1cccs1)O2	i
O=C(C1=C[C@@H](c2csc3ccccc23)C[C@@H](OCCCCO)O1)N1CCCCCCC1	i
COc1ccc(NC(=O)C(OC(=O)c2ccccc2)c2cccs2)cc1 (stereo not drawn)	i

Next part
SMILES	FGF22 binding
COC(=O)[C@H]1COC(c2ccc(OCCCO)cc2)=N1	i
CO[C@H]1CN(C)C(=O)c2cc(NC(=O)C3CC3)ccc2OC[C@H](C)N(C(=O)C2CCCCC2)C[C@@H]1C	i
Cc1ccc(S[C@]2(C(=O)NC(C)C)CC(=O)N(C(C)C)[C@@H]2c2ccc(CO)cc2I)cc1	i
CNC(=O)C1=C[C@@H](c2ccc(OC)cc2)C[C@@H](OCCCCO)O1	i
Cc1ccc(S[C@]2(C(=O)NCCCN(C)C)CC(=O)N(C3CCCCC3)[C@@H]2c2ccc(CO)cc2I)cc1	i
Cc1cccc(-n2c(SCN3C(=O)c4ccccc4C3=O)nc3ccccc3c2=O)c1	i
Cn1cnc(S(=O)(=O)N2CCCCN3[C@H](CO)[C@@H](c4ccc(C5=CCCC5)cc4)[C@H]3C2)c1	i

Bioassay records: PubChem, Broad Institute
